AID504770 – E. coli YBA685 growth inhibition, screen for V. cholerae RctB inhibitors | E. coli YBA685 rctB-dependent plasmid, OD600 growth, 3 h; active compounds read low | z-score (no concentration beside the values) | 130,000 compounds, 0.27% hits | AID 504770;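 active means z-score under -2 on both plates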;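 further: wells of about 30 µL received 100 nL stock; score is relative to mean and SD of the test wells; the first replicate is given; strong numbers were not always called active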
CapD inh – blocks the Bacillus anthracis CapD enzyme. purified CapD enzyme, fluorescence intensity read-out; active compounds read low; some hits fall short of the stated cut. z-score (no concentration beside the values). 140,000 compounds, 0.23% hits;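 active means z-score under -4 in either of two replicates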;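 further: stock transfer was 100 nL into about 40 µL; score is relative to mean and spread of the plate; one replicate is shown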
* marks the source's active call; other numbers are inactive results; / = not tested or not shown; & = joins results of further samples.

smiles | AID504770 | CapD inh
CC(C)CCNC(=O)C1CCCN(S(=O)(=O)c2cccc3nsnc23)C1 (centres undefined) | -0.6 | -0.26
CCc1ccc(-c2nc(CN3CCC(C(=O)NCCc4ccccc4)CC3)c(C)o2)cc1 | -1.1 | 0.04
Cc1cc(N)cc(C(=O)O)c1O | 1.2 | /
CC(C)(C)C(=O)NNC(=O)c1cc2sccc2nc1C(F)(F)F | / | 0.065
CCCCCCCOC1(c2ccccc2)OC(=O)c2ccccc21 (centres undefined) | / | 0.45
CC1CCN(c2ccc(C3Nc4ccc5ccccc5c4C4=C3C(=O)CC(C)(C)C4)cc2[N+](=O)[O-])CC1 (centres undefined) | / | -0.19
O=C1C2C3c4ccccc4C(c4ccccc43)C2C(=O)N1c1ccncc1 (centres undefined) | -0.35 | 0.21
CC1CN(C(=O)CSc2nc(N)cc(=O)[nH]2)CC(C)O1 (centres undefined) | 0.2 | /
O=C(COC(=O)C1CCN(S(=O)(=O)c2cccs2)CC1)NCc1ccccc1 | 0.55 | /
O=C(CSc1nc2sc3c(c2c(=O)[nH]1)CCCC3)NCCCN1CCOCC1 | / | 0.73
CC(C)(O)C12CC3CC(CC(C3)C1)C2 | / | 0.36
COc1ccc(NC(=O)c2ccc3c(c2)NC(=O)CO3)cc1OC | -0.3 | /
O=S(=O)(NCc1ccc2c(c1)OCO2)c1ccc2c(c1)OCCO2 | -1.2 | 0.01
COc1ccc(-n2ncc3c(Nc4cccc(C(F)(F)F)c4)ncnc32)cc1 | / | 38
O=C(CCc1nnc(-c2ccccc2)o1)OCc1c(F)cccc1Cl | 0.3 | /
CNCc1cnn(Cc2ccccc2)c1 | -0.45 | /
O=C(c1ccccc1)N(C(=O)N1CCCCC1)c1ccccc1 | 2 | /
O=C(C[n+]1cccc(NC(=O)c2ccccc2)c1)c1ccccc1 | -0.35 | 0.005
CCN(C(=O)Cn1cc(C(=O)C2CC2)c2ccccc21)c1ccccc1 | -0.5 | 0.72
CCC(Sc1nc(C)cc(=O)[nH]1)C(=O)Nc1sc2c(c1C#N)CCCC2 (centres undefined) | 0.85 | -0.79
COc1cc(N=CC2=C(O)CC(C)(C)CC2=O)c(OC)cc1Cl | -1 | 0.22
COc1ccccc1OCC(=O)Nc1cc(-c2nc3ccccc3[nH]2)ccc1C | -2 | 2.6
N#Cc1ccc(OCC(O)CN2CCN(c3ccc(F)cc3)CC2)cc1 (centres undefined) | / | -0.34
CN(C(=O)Cn1c(=O)oc2ccccc21)c1ccccc1 | -0.55 | /
CCCn1c(C2CC(=O)N(c3ccc(CC)cc3)C2)nc2ccccc21 (centres undefined) | -0.15 | /
Cc1sc(-c2ccccc2)nc1CC(=O)N1CCN(c2ccc(C(F)(F)F)cn2)CC1 | / | 2.8
Cc1cccc(CSC2=NCCN2C(=O)C2CC2)c1 | -1.6 | /
Cc1ccc(S(=O)(=O)c2ccc(-n3nc(C)cc3N)cc2)cc1 | 0.8 | 0.14
COc1ccc(Cl)cc1-n1nnc(-c2nc(-c3ccc4c(c3)OCO4)no2)c1N | 0.75 | 0.28
O=C(NCC1CCCO1)c1cc2ccccc2nc1Cl (centres undefined) | 1 | -0.74
O=S(=O)(NCc1ccco1)c1cccc(-n2cnnn2)c1 | -0.35 | /
O=C(O)C1CC(=O)N(Cc2ccccc2)C1c1ccccc1 (centres undefined) | -0.85 | -0.21
O=C(COc1ccc(Cl)cc1Cl)Nc1nnc(C2=COCCO2)o1 | -0.25 | /
O=C(O)CCNC(=O)c1ccccc1 | -0.25&0.1 | 0.17
Nc1ccccc1SC(CC(=O)c1cccs1)c1cccs1 (centres undefined) | -0.6 | -0.53
N#CC(C(=O)Nc1cccc(C(F)(F)F)c1)=C1CCCCCC1 | 0.6 | 3.3
O=C(Nc1ccc2c(c1)OCC(=O)N2Cc1ccccc1)c1ccco1 | 0.6 | /
O=C(CSc1ccc(Cl)cc1)Nc1ccc(N2CCOCC2)c(F)c1 | / | -0.61
C=CCc1ccccc1OCC(O)CN1CCN(CC)CC1 (centres undefined) | -0.65 | -0.28
Cc1cc(C)cc(NC(=O)Nc2ccccc2C(=O)Nc2cc(C)cc(C)c2)c1 | -0.35 | -0.55
CC1(O)CC(C(F)(F)OC(F)(F)F)=NN1S(=O)(=O)c1ccccc1 (centres undefined) | 0.05 | -1.5
CCOC(=O)C1=C(C)N=c2s/c(=C\c3ccc4c(c3)OCCO4)c(=O)n2C1c1ccc(OC)c(OCC)c1 (centres undefined) | / | -0.53
Cc1ccc(C(=O)Nc2sc(CC#N)nc2-c2ccc(C)cc2)cc1 | -0.55 | 2.2
[O-]/[N+](Cc1ccccc1)=N\OCc1ccccc1 | -0.35 | 0.06
O=C(NC(=S)N1CCCCC1CO)C12CC3CC(CC(C3)C1)C2 (centres undefined) | -1.6 | /
CS(=O)(=O)c1ccc2ccn(OC/C=C/c3ccccc3)c2c1 | / | -0.14
CCCN(CCC)S(=O)(=O)c1ccc(C(=O)OCC(=O)c2ccccc2)cc1 | -0.45 | -0.38
Cc1ccc(-c2cc(C(=O)N3CCCC3)no2)cc1 | -0.7 | /
CSc1nc(-c2cc(Cl)cc(Cl)c2)nn1C(=O)N(C)C | 2.1 | -0.29
COc1ccc2nc(SCC(=O)Nc3ccc4c(c3)OCCO4)[nH]c2c1 | / | -0.31
CCOc1cccc(N2C(=O)/C(=C\c3ccc(-c4cccc([N+](=O)[O-])c4)o3)C(=O)NC2=S)c1 | / | -0.33
CCN1C(=O)Cc2ccccc21 | -0.45 | 0.6
CC(NCCC(=O)O)c1ccccc1 (centres undefined) | 1.6 | -0.24
Cc1ccc(SCC(=O)Nc2cccnc2)cc1 | 0.6 | 0.035
CC1CCC(NC(=O)C2CCN(c3nnc(-n4cccc4)s3)CC2)CC1 (centres undefined) | 1.7 | -0.38
Cc1nc(N2CCC(C)CC2)c2c(C)c(C(=O)N3CCN(c4ccccc4)CC3)sc2n1 | / | -0.27
COc1cc(-c2nc3sc4c(c3c(=O)[nH]2)CCCC4)cc(Br)c1OCc1ccccc1F | / | 3.6
CSc1nn(-c2ccccc2)cc1C(N)=S | / | -1.3
C=CCNC(=O)CSc1nc(-c2ccco2)cc(C(F)(F)F)n1 | -1.1 | /
O=C1NC(=O)C2(CCC(C(=O)O)C2)N1 (centres undefined) | -0.65 | -0.03

(next part)
smiles | AID504770 | CapD inh
CCOc1cc(C2C(C(=O)OC(C)C)=C(C)NC3=C2C(=O)CC(C)(C)C3)cc(Br)c1O (centres undefined) | / | 13
CC(=O)N1c2ccc(N)cc2C(C)(c2ccccc2)CC1(C)C (centres undefined) | / | -0.67
COC(=O)CCN1CCC(C(N)=O)CC1 | -0.75 | /
COc1ccc(/C=C(\C#N)C(=O)OCc2nc(-c3ccc(C)cc3)no2)cc1 | -0.3 | /
O=S(=O)(Nc1ccc(O)c(-c2c(O)ccc3ccccc23)c1)c1cccs1 | -1 | -0.025
Cc1ccc(C)c2c1c1ccccc1n2C | 1.2 | 5.6
COc1cccc(-c2cc(C(=O)Nc3ccc(S(=O)(=O)Nc4nccc(C)n4)cc3)c3ccccc3n2)c1 | / | 0.43
COC(=O)CN1CCN(c2nc3c(c(=O)[nH]c(=O)n3C)n2Cc2ccc(Cl)c(Cl)c2)CC1 | 1.2 | /
CCN1CCN(C(=O)c2cc3c(=O)n(C)c4ccccc4c3n2C)CC1 | 1.1 | 0.92
O=C1CCC(C(=O)O)CC1 | 1.5 | /
O=c1oc2ccc(Cl)cc2cc1-c1nc(-c2ccc(Br)cc2)cs1 | / | -0.34
CN(C)S(=O)(=O)N(C)c1ccccc1 | -0.25 | 0.45
O=C(COc1cccc(Cl)c1)Nc1ccc(OC(F)(F)F)cc1 | 0.35 | 0.49
N#CCc1ccc(Oc2ncnc3c2oc2ccccc23)cc1 | -0.05 | /
CC1CC(C)CN(Cn2ncn(C)c2=S)C1 (centres undefined) | 0.15 | /

Four entries from above in a different format.
N#CCc1ccc(Oc2ncnc3c2oc2ccccc23)cc1
  AID504770: -0.05	CapD inh: /

O=S(=O)(Nc1ccc(O)c(-c2c(O)ccc3ccccc23)c1)c1cccs1
  AID504770: -1	CapD inh: -0.025

O=C1CCC(C(=O)O)CC1
  AID504770: 1.5	CapD inh: /

COC(=O)CN1CCN(c2nc3c(c(=O)[nH]c(=O)n3C)n2Cc2ccc(Cl)c(Cl)c2)CC1
  AID504770: 1.2	CapD inh: /

The results go on:
smiles | AID504770 | CapD inh
O=C(Sc1nnnn1-c1ccccc1)c1cccc(Cl)c1 | 0.2 | -0.29
c1cncc(-c2nnc(SCC3CCCCC3)o2)c1 | 0.1 | /
COc1ccc(C(=O)c2cc3cc(Br)cc(Br)c3o2)cc1 | / | 0.045
CCOC(=O)c1ccc(/N=C/N(C)C)o1 | -0.05 | /
COc1cc(CC(C#N)(CO)c2nc3ccccc3[nH]2)ccc1OC(F)F (centres undefined) | 0.7 | /
COc1cc(OC)c(/C=C2\C(=O)NC(=O)N(c3ccccc3C)C2=O)c(OC)c1 | / | 0.49
Cc1nc(N2CCN(C)CC2)c2c(C)c(C(=O)Nc3c(F)cccc3F)sc2n1 | / | 1.8
COc1cscc1C(=O)NNC(=O)OCCc1c(C)cc(C)cc1C | / | 0.15
O=C(O)C(Cc1cnc[nH]1)N1C(=O)C2C3C=CC(C3)C2C1=O (centres undefined) | -0.3 | /
N#Cc1cccnc1NNC(=O)Nc1cccc2ccccc12 | -0.4 | 11
Nc1nnc(CCC2CCCCC2)s1 | -0.55 | -0.59
COc1ccc(C(=O)NNS(=O)(=O)c2cccc3c(N(C)C)cccc23)cc1 | / | 0.095
COc1ccc(S(=O)CC(=O)Nc2ccc(Cl)cc2Cl)cc1 (centres undefined) | / | -0.39
CCCCN1CC(O)=C(c2ccccc2)C1=N | -0.75 | -0.34
CCS(=O)(=O)c1ccc2oc(SCC(=O)NCCc3ccccc3)nc2c1 | 0 | /

Further compounds
Values in the order: AID504770, CapD inh
> C/C(=C\c1ccccc1)C(=O)N/N=C/c1cc2ccccc2o1
→ /, -0.59
> CCOC(=O)c1[nH]c(CSc2nnc(-c3ccc(OC)cc3)o2)c(C(=O)OCC)c1C
→ 1.4, /
> CN(c1nc(N)c2c(N)nc3c(c2c1C#N)CC(=O)N3Cc1cccs1)C1CCS(=O)(=O)C1 (centres undefined)
→ 0.25, /
> Fc1ccc(CN2C3=NCCN3c3ccccc32)cc1
→ /, -0.36
> CC(OC(=O)c1ccc(CN2CCCC2=O)cc1)C(=O)c1ccc(F)cc1 (centres undefined)
→ -0.15, /
> FC(F)(F)COc1ccc(OCC(F)(F)F)c(-c2csnn2)c1
→ /, 0.14
> Cc1cccc(Cl)c1S(=O)(=O)NC1CCCC1OCc1ccccc1 (centres undefined)
→ /, -1.1
> COc1ccc2cc3cc(C(=O)NCCCN4CCCCCC4)oc3nc2c1
→ 0, 2.6
> CCCC(=O)NC(=S)Nc1cc(-c2nc3cc(CC)ccc3o2)ccc1C
→ -0.25, 0.7
> Nc1nc2c(-c3ccccc3)c(C(F)(F)F)sc2s1
→ 0.25, 0.55

Looked up one by one from the list above (4):
Values in the order: AID504770, CapD inh
> Nc1nnc(CCC2CCCCC2)s1
→ -0.55, -0.59
> Cc1ccc(S(=O)(=O)c2ccc(-n3nc(C)cc3N)cc2)cc1
→ 0.8, 0.14
> CC(C)CCNC(=O)C1CCCN(S(=O)(=O)c2cccc3nsnc23)C1 (centres undefined)
→ -0.6, -0.26
> O=S(=O)(Nc1ccc(O)c(-c2c(O)ccc3ccccc23)c1)c1cccs1
→ -1, -0.025

Going on with the list.
Values in the order: AID504770, CapD inh
> CC(C)c1ccc(/C=N/NC(=O)CC#N)cc1
→ /, 0.015
> Cc1ccc(C)c(NC(=O)CN(C)C(=O)c2ccccn2)c1
→ 0.1, /
> CCOc1ccc(/C=C/C(=O)Nc2nc(-c3ccc(C)cc3)c(C)s2)cc1
→ -0.45, -1.9
> Cn1c2c(c(=O)[nH]c1=O)C(c1cccc(Cl)c1Cl)C1=C(N2)c2ccccc2C1=O (centres undefined)
→ /, -0.28
> COc1cc(C=Nc2ccccc2)cc(OC)c1O
→ -0.3, -0.33
> CC(C)C(NC(=O)Cc1c[nH]c2ccccc12)C(=O)NNC(=O)c1sccc1NC(=O)c1ccccc1Cl (centres undefined)
→ /, 0.58
> CC1=C(C(=O)Nc2cc(C)ccn2)C(c2cc([N+](=O)[O-])ccc2Cl)C2=C(CC(C)(C)CC2=O)N1 (centres undefined)
→ /, 0.48
> CCc1nc2c(c(=O)c3ccccc3n2C)c(=O)n1Cc1ccco1
→ 1.2, /
> CON(C)C(=O)CCOC(Cc1cnccn1)c1ccc(C(F)(F)F)cc1 (centres undefined)
→ /, -0.035
> CC(C)(C)OC(=O)N/N=C/c1cccc(O)c1
→ -0.75, /
> CN(C)S(=O)(=O)c1ccc(C(=O)Oc2cc(=O)[nH]c3ccccc23)cc1
→ 0.2, /
> CCC(C)(C)C1CCC(N)CC1 (centres undefined)
→ -0.8, /
> CCc1ccccc1NC(=O)Cn1nnc(C(=O)O)c1C(=O)O
→ -0.8, -0.085
> CC(CC(=O)O)CC(=O)Nc1cc(C(F)(F)F)cc(C(F)(F)F)c1 (centres undefined)
→ /, 0.66
> Cc1ccc(S(=O)(=O)N2CCCC(C(=O)N3CCCCC3)C2)cc1 (centres undefined)
→ 1.5, /
> C=CCNC(=O)C1CC=CCC1C(=O)Nc1ccccc1C (centres undefined)
→ -0.2, 0.065
> Cc1ccc2onc(CNC(=O)N3CCC(C(N)=O)CC3)c2c1
→ -0.35, 0.39
> Cc1nn(-c2ccc(F)cc2)c2ncc(C(=O)N3CCN(C(=O)c4ccco4)CC3)c(Cl)c12
→ -0.65, /
> O=S1(=O)C=CC(N2CCCCC2)C1 (centres undefined)
→ 2.1, 0.4
> CCN(CC)C(NC(=O)c1ccccc1)C(=O)c1ccccc1 (centres undefined)
→ -0.25, /
> O=S(=O)(CS(=O)(=O)c1ccccc1)c1ccccc1
→ -0.05, -0.17

Source: PubChem
